High-throughput results (PubChem)
Menin-MLL FL inh = displaces fluorescein MLL peptide from human menin. AID 1766. FP activity change, % at 61.4 µM. Fluorescence polarization, fluorescein-MLL peptide displacement from menin. 290,000 tested, under 10 active; inconclusive = falling polarisation curve, or a change in total fluorescence; inactive = total fluorescence flat and polarisation flat or rising; no compound was filed as active; the % refers to the polarisation; negative = inhibition;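 note: % of control where 0% means no effect; inhibitors lower the polarisation; unlabelled MLL peptide was the positive control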
Sfp inh = Sfp phosphopantetheinyl transferase inhibition; Potency, µM, inactives show max response, negative = inhibition, most hits filed as inhibitors; 310,000 compounds, 3.5% hits; AID 1490; Biochemical Sfp PPTase activity, qHTS; active = well fitted inhibition curve with a large enough effect; inconclusive = small, poorly fitted or top-dose-only effect, or another doubt; inactive = no such curve, though single readings can be large or run the other way;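 note: the enzyme is Sfp with the accession as filed and its product quenches rhodamine fluorescence; potency is the fitted concentration of half-maximal effect; 0% = enzyme reaction without inhibitor and -100% = no enzyme wells; top concentration of the series not given in the record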
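Compounds were incubated with enzyme (final 15 nM) for 15 min at room temperature before substrate addition started the reaction. Fluorescence at 525 nm excitation, 598 nm emission was recorded immediately and after 30 minutes.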
ClpP mod = qHTS Assay for Activators of ClpP; 340,000 compounds, 1.9% hits; Potency, µM (highest dose often 57.5 µM), inactives show top-dose activity change, negative = active; purified B. subtilis ClpP, FRET peptide cleavage, 20 min; ATP-dependent Clp protease proteolytic subunit (Bacillus subtilis (strain 168)), P80244; active = well fitted falling curve with a large enough effect; inconclusive = small, poorly fitted or top-dose-only effect; inactive = no such curve, though single readings can be large or run the other way; note: potency is the fitted concentration of half-maximal effect; the source files actives as falling curves though it sought activators and does not explain the sign; nearly all actives have a fitted effect of over 65% in size; many hits overshoot -100%
Target sequence (P80244 whole entry, looked up): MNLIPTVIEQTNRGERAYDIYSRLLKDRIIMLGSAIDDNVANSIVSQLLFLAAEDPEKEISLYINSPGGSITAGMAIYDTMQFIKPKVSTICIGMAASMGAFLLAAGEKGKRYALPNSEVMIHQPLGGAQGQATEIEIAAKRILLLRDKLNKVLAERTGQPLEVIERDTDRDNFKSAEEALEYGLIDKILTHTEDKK
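Purified B. subtilis ClpP, 10 microg/mL final in Tris/HCl pH8 with KCl, BSA, glycerol and Tween-20, cleaved an Abz/nitrotyrosine-quenched decapeptide. Fluorescence (ex 320, em 430) was read at 0 and 20 min at room temperature. Delta was normalized to 5.8 microM ADEP and DMSO/no-enzyme controls.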
TRPML1 blocker = human mucolipin-1 channel inhibition; Q9GZU1; AID 624415; 390,000 compounds, 0.02% hits; TRPML1-inducible cells, Ca2+ dye fluorescence, FDSS; active compounds read low; inhibition of EC80 agonist-evoked calcium signal; activity change, negative = inhibition, % (test concentration not listed); in the data active means activity change below about -50%; inconclusive means about -30% to -50%; inactive means above about -30%;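 note: stimulus is agonist 54-4 at its EC80 concentration; % is set by controls: 0 for no effect and ±100 for the full control effect; compound concentration not given in the record; the text of the record puts the active cut at -80%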
Target sequence (Q9GZU1 whole entry, looked up): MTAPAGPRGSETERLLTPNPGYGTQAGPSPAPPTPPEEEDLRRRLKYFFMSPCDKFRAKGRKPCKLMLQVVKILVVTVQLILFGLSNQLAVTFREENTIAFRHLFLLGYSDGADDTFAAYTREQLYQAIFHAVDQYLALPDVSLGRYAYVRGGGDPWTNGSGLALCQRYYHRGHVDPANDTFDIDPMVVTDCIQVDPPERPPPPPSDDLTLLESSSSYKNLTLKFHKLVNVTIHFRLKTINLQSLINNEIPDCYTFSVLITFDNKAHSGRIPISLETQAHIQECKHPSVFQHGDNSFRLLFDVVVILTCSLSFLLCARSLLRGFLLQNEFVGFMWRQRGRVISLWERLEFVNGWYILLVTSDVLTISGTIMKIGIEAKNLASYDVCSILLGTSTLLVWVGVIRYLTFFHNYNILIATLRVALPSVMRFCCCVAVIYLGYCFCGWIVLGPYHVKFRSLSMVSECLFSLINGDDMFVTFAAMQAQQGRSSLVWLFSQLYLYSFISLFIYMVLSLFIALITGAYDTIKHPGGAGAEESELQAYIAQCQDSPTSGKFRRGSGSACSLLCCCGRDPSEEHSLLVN
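Tet-induced TRPML1-DL cells loaded with Ca8 no-wash calcium dye were read kinetically on FDSS. Compound addition was followed by EC80 agonist 54-4 (4 uM final); inhibition was read over 110 s.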
gsp antagonist = gsp mutant antagonism. 340,000 compounds, 0.4% hits. Potency, µM (top dose mostly 76.9 µM), for the others: at the top dose activity change, negative = inhibition, usual class: inhibitors. AID 624288. gsp-mutant cells, cAMP HTRF, 30 min; control for the full effect not named in the record; active = falling curve of any shape with a large fitted effect; inconclusive = falling curve, mostly with a smaller effect; inactive = flat or rising curve; cell line not stated here;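 note: intracellular cAMP measured with PDE inhibitor Ro 20-1724 present during compound exposure; potency is the fitted concentration of half-maximal effect; % is set by controls: 0 for no effect and ±100 for the full control effect; nearly all actives have a fitted effect of over 65% in size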
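HTRF cAMP measurement after 30 min RT detection following 30 min, 37C compound treatment alongside […] (added as 300 uM solution) in G418-selected cells seeded at 2000/well and grown 16–24 h.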
TRPV1 potentiator = enhances activation of the human vanilloid receptor TRPV1; 320,000 compounds, 0.02% hits; potentiation, % at 8.33 µM; TRPV1-expressing cells, Fluo-8 calcium influx, capsaicin EC20 potentiation; host cell line not named in the record; control for the full effect not named in the record; Q8NER1; active means potentiation above 80%; inconclusive means 30% to 80%; inactive means below 30%; note: 0% is about no effect
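Fluo-8 calcium influx in TRPV1-expressing cells, kinetic read (ex 480/em 520 nm). Compound added and read 3 min for agonist activity, followed by capsaicin at EC20 final and 2 min further read for enhancement.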
gsp agonist = activates gsp, the McCune-Albright syndrome mutation; gsp mutant cells, cAMP HTRF, 30 min; control for the full effect not named in the record; Potency, µM (series often up to 76.9 µM), without a hit: top-dose activation (cAMP increase), usual class: activators; 340,000 compounds, 0.13% hits; AID 624287; active = well fitted activation curve with a large enough effect; inconclusive = small, poorly fitted or top-dose-only effect, or another doubt; inactive = no such curve, though single readings can be large or run the other way; cell line not stated here;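 note: phosphodiesterase inhibitor Ro 20-1724 added with compounds to block cAMP breakdown; potency is the fitted concentration of half-maximal effect; nearly all actives have a fitted effect of over 60% in size; about a fifth of the inactives were tested at one dose only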
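Cells in DMEM/10% FBS with G418 were pretreated with compounds in DMSO plus […] (300 uM stock) for 30 min at 37C. cAMP was measured by HTRF (cAMP-d2 plus anti-cAMP antibody-K) after 30 min at room temperature.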
* hit, by the source's call; ? = inconclusive; . = not tested or not shown; & = joins results of further samples; [ ] = remark or other dose.

Each structure is followed by: Menin-MLL FL inh	Sfp inh	ClpP mod	TRPML1 blocker	gsp antagonist	TRPV1 potentiator	gsp agonist
CC(C)CNc1nc(Oc2ccc(=O)n(-c3ccccc3)n2)nc(N2CCOCC2)n1
 : 2.4	20%	1.3%	7	-25%	-11	?
C=CCNC(=O)c1ccc(NC(=O)CC2SC(N3CCCC3)=NC2=O)cc1 (stereo not given)
 : .	.	-0.5%	8	7%	3	8%[15.4 µM]
COc1ccc(OCc2nnc(SCC(=O)NCc3ccco3)o2)cc1
 : 2.8	7%	-1.8%	2	-7%	-2	-19%
Cc1n[nH]c2c([N+](=O)[O-])c(=O)[nH]c(=O)n12
 : .	.	1.5%	4	15%	.	2%
CC(C)(C)OC(=O)N[C@@H](Cc1ccccc1)c1nnc(S(=O)(=O)Cc2cccc(F)c2)o1
 : 0.3	7.9µM*	-1.1%	-4	10%	-7	6%
NC(=O)c1ccsc1NC(=O)COC(=O)Cc1n[nH]c(=O)c2ccccc12
 : .	.	-6.2%	54	8%	5	13%
Cc1cccc(C2C3=C(Nc4[nH]n(-c5ccccc5)c(=O)c42)c2ccccc2C3=O)c1 (stereo not given)
 : 3.5	-16%	0.5%	9	?	2	-2%
O=C(Cn1cnc2ccccc2c1=O)c1ccc(Cl)cc1
 : -0.5	21%	0.5%	19	6%	0	-73%[inhibitor]
CCOC(=O)c1ccc(NC(=O)N2C3CCCC2CC(NC(C)=O)C3)cc1 (stereo not given)
 : -0.5	-1%	-2.6%	-13	5%	4	5%
N#Cc1c(-c2ccccc2)nc(N2CCOCC2)[nH]c1=O
 : 0.7	31%[activator]	-0.7%	12	5%	-1	?
O=S(=O)(Nc1cccc(S(=O)(=O)N2CCOCC2)c1)c1ccc(Cl)s1
 : -1.6	16%	.	-15	-4%	15	4%[15.4 µM]
COC(=O)c1cc(=O)n(-c2ccccc2)c(=Nc2ccccc2)s1
 : 1.7	-13%	-3.0%	0	0%	-5	-57%[inhibitor]
O=C(/C=C/c1ccc(Cl)cc1)Nc1ccc(S(=O)(=O)Nc2ncccn2)cc1
 : -8.3	18%	1.9%	15	-26%	8	-6%
CCCc1nc(NC(C)=O)c(C#N)c(-c2ccco2)c1CC
 : 1.8	-4%	?	-7	7%	10	-9%
CC(=O)Nc1ccc(S(=O)(=O)NCCC(=O)N2CCN(C(c3ccccc3)c3ccccc3)CC2)cc1
 : .	.	0.4%	13	-26%	4	3%[15.4 µM]
CCOc1ccc2c(c1)-c1c(ssc1=S)C(C)(C)N2C(=O)CSC1=NCCS1
 : 4.0	10%	1.7%	6	-7%	4	-14%[15.4 µM]
Cc1ncc(S(=O)(=O)c2ccc(Cl)cc2)c(N)n1
 : .	.	-17%	3	4%	.	-5%[15.4 µM]
CC1CN(N=Cc2ccc([N+](=O)[O-])o2)C(=N)O1 (stereo not given)
 : .	.	.	15	10%	.	6%
O=C(NCCC1=CCCCC1)c1ccc(Cl)c(S(=O)(=O)N2CCOCC2)c1
 : 2.4	12%	-2.9%	10	-24%	-13	-17%
CC1C=Cc2ccccc2N1C(=O)c1ccccc1 (stereo not given)
 : 5.6	7%	1.0%	-4	-12%	?	-20%

Compound profiles, from the list above.
`CC(C)CNc1nc(Oc2ccc(=O)n(-c3ccccc3)n2)nc(N2CCOCC2)n1` across the screens: Menin-MLL FL inh: 2.4; Sfp inh: 20%; ClpP mod: 1.3%; TRPML1 blocker: 7; gsp antagonist: -25%; TRPV1 potentiator: -11; gsp agonist: ?
`CC(C)(C)OC(=O)N[C@@H](Cc1ccccc1)c1nnc(S(=O)(=O)Cc2cccc(F)c2)o1` across the screens: Menin-MLL FL inh: 0.3; Sfp inh: 7.9µM*; ClpP mod: -1.1%; TRPML1 blocker: -4; gsp antagonist: 10%; TRPV1 potentiator: -7; gsp agonist: 6%

(list continues)
Each structure is followed by: Menin-MLL FL inh	Sfp inh	ClpP mod	TRPML1 blocker	gsp antagonist	TRPV1 potentiator	gsp agonist
Cc1ccccc1Oc1ccc2c(c1)[C@@H]1C[C@H](N(C)C(=S)Nc3ccc(F)cc3)[C@H]([C@H](C)O)C(=O)N1CC2
 : .	.	-15%	-18	.	.	-141%[inhibitor]
O=C(c1cccs1)n1cc(C(=S)N2CCOCC2)c2ccccc21
 : -0.1	15%	-0.6%	14	-8%	1	26%
O=c1[nH]c2ccccc2c(=O)c2ccccc12
 : .	.	-2.7%	-5	.	.	-34%[inhibitor]
CC1(C)C(C=C(Cl)Cl)C1C(=O)N(Cc1ccc(Cl)cc1)C1CCS(=O)(=O)C1 (stereo not given)
 : 8.2	?	1.0%	18	-23%	12	7%[15.4 µM]
Cc1cccc2c(=O)c(-c3ccc(Cl)cc3)c(NC(=O)c3ccco3)oc12
 : -0.3	-4%	-0.3%	0	?	8	14%
C[C@@H]1CN(C(=O)c2nc3ccc(Cl)cn3c2CN[C@H]2CCCCNC2=O)C[C@H](C)O1
 : -2.1	-5%	-9.7%	-17	6%	-4	?
O=C(Nc1cccc(S(=O)(=O)N2CCOCC2)c1)c1ccco1
 : 1.6	-5%	-0.1%	1	8%	?	-58%[inhibitor]
CC(=O)c1cc2c(cc1NS(=O)(=O)c1ccccc1F)OCO2
 : 0.3	11%	-0.6%	-26	-17%	8	-37%
CCC(=O)c1c[nH]c(C(=O)NCC2CCCO2)c1 (stereo not given)
 : 0.1	15%	-3.3%	12	7%	.	?
COc1cc(/C=C(\C#N)c2[nH]nc(N)c2C#N)cc(OC)c1O
 : ?	-1%	0.5%	-5	32%[activator]	-18	-12%
CC(Cc1ccccc1)C(=O)N(C)Cc1ccccc1 (stereo not given)
 : 3.9&-0.2	9%&29%	1.5%	-5	9%	0	12%
Cc1ccc(N(CC(=O)NC(C)(C)C)C(=O)CNC(=O)c2cccs2)c(C)c1
 : -0.3	24%	.	-13	8%	3	18%
CCCC(=O)Nc1ccc(C(=O)NCC2CCCO2)cc1 (stereo not given)
 : 3.6	0%	1.3%	8	-3%	5	-17%
Cc1cccc(NC(=O)c2ccoc2C)n1
 : 3.8	6%	28µM*	-7	10%	-3	-26%
COc1ccc(-n2c(SCC(=O)Nc3cc(C)on3)nc3c([nH]c4ccccc43)c2=O)cc1OC
 : -0.1	2%	-1.1%	-19	0%	2	-2%
Cc1ccc2nc(SCc3nc4c(cnn4-c4ccccc4)c(=O)[nH]3)[nH]c2c1
 : 2.1	20%	-1.0%	-2	-3%	11	-13%
CC(C)c1ccc(NC(=O)CSc2n[nH]c(=O)n2-c2ccc3c(c2)OCCO3)cc1
 : -0.9	3%	.	8	-7%	26	19%
O=C(c1ccco1)N1CCN(Cc2nnc(-c3cccc(Cl)c3)o2)CC1
 : 1.6	13%	.	6	-1%	-9	0%
COc1ccccc1CNC(=O)C1(NC(=O)Nc2ccc(C)cc2)CCCCC1
 : -6.5	18%	-1.2%	17	-13%	-6	-31%[inhibitor]
CN(C)c1ccc(C=Nc2ccccc2C(N)=O)cc1
 : 1.6	6%	25µM*	-15	5%	-6	18%
CC1(C2CC(C(F)(F)F)n3nc(C(=O)O)cc3N2)CC1 (stereo not given)
 : 3.5	15%	.	6	10%	-6	8%[15.4 µM]
N#Cc1c(NC(=O)COC(=O)c2ccc(F)cc2)sc2c1CCC2
 : 3.9	20%	-1.7%	-9	12%	-17	6%
Nc1nonc1NC(=O)NN=C1CCCCC1
 : 1.1	35µM*	-2.6%	-12	11%	10	?
N#CCN1CCN(CCC(=O)Nc2ccc(OCc3ccccc3)cc2)CC1
 : 2.6	-7%	-2.1%	54	1%	0	-19%
CCCNC(=O)OC[C@H]1O[C@H](CCO/N=C/c2ccc(C(=O)N3[C@H](c4ccc(C)cc4)[C@@H](C)CC[C@H]3C(=O)OC)cc2)C=C[C@@H]1Oc1ccc(OC)cc1
 : 4.4	22%	.	.	.	-12	.
O=C(Nc1ccncc1)OCc1ccccc1
 : 0.1	-2%	1.3%	6	9%	-10	-12%[15.4 µM]
O=C(OCC(=O)c1cccs1)C1=COCCO1
 : 2.6	11%	0.2%	6	6%	28	-23%
CCOCCCNC(=O)c1cc2c(s1)-c1ccccc1SC2
 : 6.0	79µM*	-7.2%	-9	-13%	-9	5%
Cc1ccc(C)c(-c2cc(C(=O)Nc3nccs3)c3ccccc3n2)c1
 : 2.2	-2%	-4.0%	-13	11%	-9	15%
O=C(NC1CCCCC1)c1ccc2[nH]c(=O)c(=O)[nH]c2c1
 : -2.3	0%	-6.1%	11	6%	10	0%
CC(C)n1c(O)c(/C=C2\C=NN=C2c2ccccc2)sc1=S
 : 4.8	17%	.	15	0%	.	-11%[15.4 µM]
CCc1ccc(/C(C)=N/Nc2cc(Cl)nc(C)n2)cc1
 : 5.0	-5%	-0.7%	-7	-11%	-8	-10%
COc1ccc(/C(N)=N/OC(=O)Cc2ccccc2OC)cc1
 : 1.4	-13%	-0.1%	-5	-20%	3	-6%
CNc1ccc(Br)cc(C(=O)/C=C/c2cccc(OC)c2OC)c1=O
 : ?	13µM*	-1.4%	2	12%	18	-11%
O=C(CCN=C1NS(=O)(=O)c2ccccc21)OCC(=O)c1ccc(F)c(F)c1
 : .	.	.	10	1%	16	-4%[15.4 µM]
CC(=O)c1c(C)[nH]c(C(=O)OCC(=O)Nc2ncc(Cl)c(C)c2Cl)c1C
 : 0.4	7%	-1.8%	2	-3%	4	10%
CCOC(=O)c1c(C)[nH]c(C(=O)COC(=O)CNS(=O)(=O)c2ccc(C)cc2)c1C
 : .	.	0.4%	-4	32µM*	2	-17%
Oc1ccc(-c2onc3ccc(Cl)cc23)cc1
 : ?	22µM*	-4.9%	-14	-7%	-2	24%
COc1cccc(COC(=O)CSCC(=O)Nc2ccc(C)cc2)c1OC
 : .	.	-5.6%	-7	.	.	-59%[inhibitor]
COc1cc(OC)cc(C(=O)NCCSc2c[nH]c3ccccc23)c1
 : 4.2	7%	.	-7	-12%	-8	4%
COc1cc2cc(CN(CCN3CCCC3)C(=O)Nc3ccc(F)cc3)c(=O)[nH]c2cc1OC
 : 5.3	-4%	14µM*	-6	-2%	4	-9%
CSCC[C@H](NC(=O)[C@@H]1Cc2ccccc2CN1)C(=O)Nc1cccc(C)c1
 : .	-8%	-2.4%	20	5%	-12	2%
